# TAR Tat displ – TAR RNA-Tat peptide displacers, HIV-1, primary screen, biochemical, FRET, FAM/TAMRA-labeled Tat. 0.6% of 100,000 active. z-score (concentration not given with the values). HIV-1 TAR RNA, Tat peptide displacement FRET; active compounds read high;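 note: score is relative to mean and SD of negative controls; some compounds called inactive have numbers as strong as hits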
# CDC25B CDK2 inh – primary biochemical HTRF screen for blockers of M-phase inducer phosphatase 2 binding to CDK2/cyclin A | HTRF CDC25B-CDK2/CyclinA binding, anti-His/anti-Flag; active compounds read high | z-score (concentration not given with the values) | 0.72% of 94,000 active;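 note: score is relative to mean and SD of negative controls; strong numbers were not always called active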
# * hit, by the source's call; . = not tested or not shown.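 Rule for the calls: active = z-score from 3 up in half or more of its runs; inactive = the rest.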
SMILES,TAR Tat displ,CDC25B CDK2 inh
CN1C2CCC1CC(NC(=O)CSCc1ccc(Cl)cc1Cl)C2 (stereo not drawn),.,-1.45
O=C1CCC2=C(CCCC2)N1c1ccccc1,.,-2.53
CN(C)CCc1c[nH]c2ccc(CS(=O)(=O)N3CCCC3)cc12,0.68,.
C=CCNc1nc(C2(C)CC3(CC(COCCC(C)C)OC3=O)C(=O)O2)cs1 (stereo not drawn),2.84,-0.63
COc1ccc(-c2onc(C)c2C)cc1S(=O)(=O)NCc1ccc(OC(C)C)cc1,0.84,.
Cc1nc2ccc(S(=O)(=O)NC(C(=O)NC3CCCCC3)C(C)C)cc2s1 (stereo not drawn),-1.93,-0.27
O=C(NCC1CCCO1)c1ccc2c(c1)N(Cc1ccccc1)CCS2 (stereo not drawn),-0.71,-2.64
CNC(=O)C1Cc2ccccc2N1C(C)=O (stereo not drawn),1.37,.
O=C(CCc1nnc2ccc(N3CCCCC3)nn12)Nc1nccs1,0.34,.
CCN1CCC2(CC1)OC(=O)C(C)=C2C(=O)Nc1cc(F)ccc1F,0.41,.
O=C(NCc1ccc(-c2nc3ncccc3o2)cc1)c1cc(Br)ccc1Cl,1.76,.
COc1ccc(C2c3c(-c4ccccc4O)n[nH]c3C(=O)N2CCc2ccc(OC)c(OC)c2)cc1 (stereo not drawn),1.31,0.84
CCN(Cc1cc2cc(C)ccc2[nH]c1=O)S(=O)(=O)c1ccc(C)cc1,0.92,-2.46
C=CCN(c1nc(C)c(Br)c(OC)n1)S(=O)(=O)c1ccc(C)cc1,0.89,-0.3
CCCCOC(=O)c1cccc(NC(=O)COc2cccc(C)c2C)c1,.,-4.28
O=C(NNc1nc(N2CCOCC2)nc(N2CCOCC2)n1)c1ccc(F)cc1,.,-0.47
CCOC(=O)CSc1n[nH]c2nc3c(c(=O)n12)C1(CCCC1)Cc1ccccc1-3,0.01,-1.32
COC(=O)c1sccc1NC(=O)CC1C(=O)NCCN1C(=O)c1ccccc1 (stereo not drawn),.,-0.57
COc1ccc(-c2nn(CC(=O)c3ccc(Br)cc3)c(=O)c3ccccc23)cc1,0.29,-5.79
O=C(Nc1ccc(OCc2ccccc2)cc1)N1CCN(Cc2ccncc2)CC1,.,-1.48
COc1ccc(N(C)C(=O)c2cc(S(=O)(=O)N3CCc4ccccc43)cn2C)c(OC)c1,0.76,1.05
Cc1ncc(-c2ccc(C)c(S(=O)(=O)Nc3ccc(Cl)cc3)c2)o1,0.85,.
CC1=NN(C(=O)COc2ccccc2)C(O)(C(F)(F)F)C1 (stereo not drawn),.,-1.59
Cc1ccc(-n2nnnc2CNS(=O)(=O)c2ccc(Br)cc2)cc1,0.72,.
Fc1ccccc1CSc1nnc([C@@H]2CCCN2)o1,1.28,-1
# Continuation:
SMILES,TAR Tat displ,CDC25B CDK2 inh
Cc1noc2ncnc(N3CCC(C(=O)N4CCN(c5ncccn5)CC4)CC3)c12,0.89,.
Cn1c(=O)oc2cc(S(=O)(=O)NCCC(=O)NC3CCCc4ccccc43)ccc21 (stereo not drawn),.,-1.1
Cc1cc2c(cc3c(=O)n(CC(=O)NCC4CCCO4)ncn32)s1 (stereo not drawn),.,-2.26
Fc1ccc(-c2noc3ncnc(N4CCN(Cc5ccccc5)CC4)c23)cc1,-0.01,.
Brc1ccc(-c2cn3ncsc3n2)cc1,1.3,-1
O=C(O)c1ccc(N2Cc3ccccc3C2)cc1,3.46,-0.62
Cc1ccc(-c2cc(C(=O)NCC(C)C)c3ccccc3n2)c(C)c1,.,-1.82
CCOC(=O)CNC(=O)N1CCC2(CC1)Nc1ccccc1-n1cccc12,1.54,.
CC1Oc2ccccc2C(=O)N(CC(=O)c2ccc3c(c2)OCCO3)C1=O (stereo not drawn),0.24,0.28
Cc1cc(Nc2ccccc2C)n2nc(-c3ccco3)nc2n1,-0.33,.
CN1CCN(c2nc3ccccc3nc2C(=O)Nc2cccc3c2CCCC3)CC1,1.1,.
Cc1c(-c2cccc(Cl)c2)nc2ccccc2c1C(=O)O,.,-1.67
Cn1c(=O)c2c(SCC(=O)Nc3cccc(F)c3)nc(-c3cccs3)nc2n(C)c1=O,.,-0.37
O=C(Cn1c(=O)c(CNc2ccccc2)cc2cc3c(cc21)OCCO3)Nc1ccc(F)cc1F,-7.36,.
CC(C)CCNS(=O)(=O)c1cc2c3c(c1)CCC(=O)N3CCC2,0.85,.
NC(=O)c1cc(S(=O)(=O)N2CCC(CN3CCc4ccccc4C3)CC2)cs1,0.98,.
CCOC(=O)NCCOC(=O)Nc1ccc(Cl)cc1,1.88,-1.54
CCN(CC)c1c(S(=O)(=O)c2ccccc2)cnc2ccc(F)cc12,1.81,-1.93
COc1cc(OC)c(NC(=O)c2c3c(nn2C)-c2ccccc2SC3)cc1Cl,0.48,-1.56
CCN1C(=O)C(O)(CC(=O)c2ccc(C)cc2)c2ccccc21 (stereo not drawn),0.26,0.89
O=S(=O)(c1ccc(Cl)cc1)c1nnn2c1nc(NC1CCCC1)c1sccc12,7.09*,.
Cc1nc(N2CCCC2)cc(N2CCN(S(=O)(=O)c3ccc(Br)cc3)CC2)n1,0.24,-0.17
CC1(C)CC(=O)c2cnc3c(C(=O)NC4CC4)cnn3c2C1,0.73,.
CCOC(=O)C1=C(C)NC2=C(C(=O)CC(c3ccc(Cl)cc3)C2)C1c1ccc(N(C)C)cc1 (stereo not drawn),0.46,-0.36
COc1ccc(-c2onc(C)c2C)cc1S(=O)(=O)N1CCC(c2ccccc2)C1 (stereo not drawn),0.69,.
# The results go on:
SMILES,TAR Tat displ,CDC25B CDK2 inh
O=C(O)c1cc(Nc2nc(-c3cccnc3)cs2)ccc1O,4.39*,-5.72
Cc1c(C(=O)N2CCCC2)oc2ccc(S(=O)(=O)N3CCOCC3)cc12,.,-0.76
O=C(CSc1nc(-c2ccco2)nc2cc(=O)[nH]n12)N1CCCC1,1.43,.
O=C1Nc2ccccc2/C1=C\C=C\c1ccccc1,.,-3.1
CCOC(=O)C1=C(C)NC2=C(C(=O)CCC2)C1c1ccc(OCC)cc1 (stereo not drawn),0.26,-0.35
Cn1c(=O)oc2cc(S(=O)(=O)N3CCCC3)ccc21,-0.12,-1.22
O=C(Oc1cccc(C=Nc2cccc3ccccc23)c1)c1sc2ccccc2c1Cl,.,-1.94
Cc1c(C(=O)NCCC2=CCCCC2)oc2ccc3c(c12)C(=O)CC(C)(C)O3,-0.93,-1.24
CCCCCOC(=O)Cn1nnc2sc3c(c2c1=O)CCCC3,-0.01,-0.14
CCCn1cc(S(=O)(=O)c2cc(C)cc(C)c2)c(=O)c2cc(F)c(N3CCN(C)CC3)cc21,1.3,.
COc1ccc2c(c1)CC(NC(=O)Nc1cc(C)c(Cl)cc1OC)CO2 (stereo not drawn),0.41,.
COc1ccc2nc(NS(=O)(=O)c3ccccc3)c(Nc3ccc4c(c3)OCO4)nc2c1,2.32,-1.32
COc1ccc(NC(=O)CC2C(=O)Nc3c2c(=O)n(C)c(=O)n3C)cc1 (stereo not drawn),1.93,-1.56
Cn1c(Cn2c(=O)sc3ccccc32)nnc1SC/C=C/c1ccccc1,.,-0.42
O=C1CCC([N+](=O)[O-])C(C2CCCCC2)N1 (stereo not drawn),.,-1.23
O=C(c1ccc(S(=O)(=O)NC2CCCC2)s1)N1CCCC1,2.36,.
CN1C(=O)c2ccccc2Sc2ccc(NC(=O)N3CCN(C4CCCCC4)CC3)cc21,1.26,-2.11
Clc1ccc(-c2nc3cc(CN4CCCCC4)ccc3o2)cc1,.,-0.94
Cc1ccc(Nc2c(-c3cccs3)nc3cnccn23)cc1,.,0.77
COc1ccc(C(C)=O)cc1COc1ccc(Cl)c(C)c1,.,-1.12
c1cncc(-c2nnc3n2CCCCC3)c1,-0.46,-1.22
Cc1nccnc1-c1ccnn1C(=O)Nc1cc(Cl)cc(Cl)c1,.,-0.1
O=C(CN(Cc1ccccc1)Cc1ccccc1)Nc1nnc(-c2cccs2)s1,.,-0.15
CCNS(=O)(=O)c1cc(Cl)sc1Cl,.,-0.14
CCC1CN(C(=O)Nc2ccccc2Cl)c2ccccc2S1 (stereo not drawn),0.53,.

# Part of the list above in order of formula weight, rising:
SMILES,TAR Tat displ,CDC25B CDK2 inh
CCOC(=O)NCCOC(=O)Nc1ccc(Cl)cc1,1.88,-1.54
Cc1c(-c2cccc(Cl)c2)nc2ccccc2c1C(=O)O,.,-1.67
Cc1cc(Nc2ccccc2C)n2nc(-c3ccco3)nc2n1,-0.33,.
Cc1ccc(-c2cc(C(=O)NCC(C)C)c3ccccc3n2)c(C)c1,.,-1.82
CCCCCOC(=O)Cn1nnc2sc3c(c2c1=O)CCCC3,-0.01,-0.14
CCOC(=O)C1=C(C)NC2=C(C(=O)CCC2)C1c1ccc(OCC)cc1 (stereo not drawn),0.26,-0.35
CCN(Cc1cc2cc(C)ccc2[nH]c1=O)S(=O)(=O)c1ccc(C)cc1,0.92,-2.46
C=CCNc1nc(C2(C)CC3(CC(COCCC(C)C)OC3=O)C(=O)O2)cs1 (stereo not drawn),2.84,-0.63
CCOC(=O)CSc1n[nH]c2nc3c(c(=O)n12)C1(CCCC1)Cc1ccccc1-3,0.01,-1.32
COc1ccc(-c2onc(C)c2C)cc1S(=O)(=O)N1CCC(c2ccccc2)C1 (stereo not drawn),0.69,.
O=C(CN(Cc1ccccc1)Cc1ccccc1)Nc1nnc(-c2cccs2)s1,.,-0.15
COc1ccc(-c2onc(C)c2C)cc1S(=O)(=O)NCc1ccc(OC(C)C)cc1,0.84,.
O=C(NCc1ccc(-c2nc3ncccc3o2)cc1)c1cc(Br)ccc1Cl,1.76,.
COc1ccc(-c2nn(CC(=O)c3ccc(Br)cc3)c(=O)c3ccccc23)cc1,0.29,-5.79
COc1ccc2nc(NS(=O)(=O)c3ccccc3)c(Nc3ccc4c(c3)OCO4)nc2c1,2.32,-1.32
Cn1c(=O)c2c(SCC(=O)Nc3cccc(F)c3)nc(-c3cccs3)nc2n(C)c1=O,.,-0.37
O=C(Cn1c(=O)c(CNc2ccccc2)cc2cc3c(cc21)OCCO3)Nc1ccc(F)cc1F,-7.36,.

# Continuation.
SMILES,TAR Tat displ,CDC25B CDK2 inh
Cc1ccc(/C(O)=C2\C(=O)C(=O)N(CCC(=O)O)C2c2ccccc2)cc1 (stereo not drawn),.,-0.94
Cc1ccc(N2C(=O)N(Cc3cc(=O)n4ccccc4n3)c3ccccc3S2(=O)=O)cc1Cl,1.06,.
CCn1cc(C2=NOC(C(=O)Nc3cccnc3Cl)C2)c(C)n1 (stereo not drawn),.,0.02
CCOCCCNc1nc(Nc2cccc(Cl)c2)c2cnn(C)c2n1,1.76,.
O=C(Nc1ccc2nsnc2c1)c1cc(=O)c2cc(Cl)ccc2o1,0.01,1.1
CCCCCn1c(SCCC(=O)O)nc2c1c(=O)[nH]c(=O)n2C,-0.38,-2.28
CC(=O)N1CCC2(CC1)OC(=O)C(C)=C2C(=O)NCCN(CC(C)C)CC(C)C,0.84,.
CCOC(=O)C1=NN(c2ccccc2)C(=C2C(=O)c3ccccc3C2=O)S1,.,-0.54
CC1CCCCN1c1c(-c2ccc(Cl)cc2)c(=O)c1=O (stereo not drawn),-0.84,.
O=[N+]([O-])c1ccc(Oc2cccc3cccnc23)cc1,.,-0.76
CC1CCN(C(=O)Cn2c(=O)oc3cc(S(=O)(=O)N4CCCC4)ccc32)CC1,.,-9.43
CC(C)NC(=O)CCSc1nc(-c2ccc3c(c2)OCO3)cc(C(F)(F)F)n1,1.52,-0.08
Cc1ccncc1S(=O)(=O)O,.,-0.18
CC(C(=O)NC1CCCc2ccccc21)n1ncn2c(cc3occc32)c1=O (stereo not drawn),-0.45,-0.07
O=S(=O)(c1ccc2nc(N3CCN(c4cccc(Cl)c4)CC3)cnc2c1)N1CCCCC1,-0.56,-2.27
O=C1Nc2ccccc2/C1=C\c1c[nH]c2ccccc12,.,-0.1
CC1CCN(c2nnc(N)s2)CC1,1.2,.
c1ccc(Cc2noc(-c3ccccc3)n2)cc1,-0.05,-1.77
O=C(CSc1ccccn1)Nc1c(C(=O)c2ccc(F)cc2)oc2ccccc12,.,-2.51
Cn1c(=O)n(CCCc2ccccc2)c(=O)c2c1nc1n2CCN1c1ccccc1,2.81,.
Cc1nc2c(c(SC(C)C(=O)Nc3ccc(Br)cc3)n1)CCC2 (stereo not drawn),1.21,-1.84
CCC(NC(=O)Nc1cc(C)ccc1C)c1c(-n2cccc2)sc2c1CCN(C)C2 (stereo not drawn),-7.01,.
O=C(CCC(=O)N1CC2CCCN2c2ccccc21)NCCc1cccs1 (stereo not drawn),-3.19,.
CC1Sc2ccc(S(=O)(=O)N3CCC(C(N)=O)CC3)cc2NC1=O (stereo not drawn),2.64,.
CC(C)(C)c1ccc(S(=O)(=O)N2CCC(N3CCCCC3)CC2)cc1,2.37,0.21
# The listing continues.
SMILES,TAR Tat displ,CDC25B CDK2 inh
COc1ccc(OC)c(C2CCN(S(=O)(=O)c3ccc4c(c3)CCCC(=O)N4)C2)c1 (stereo not drawn),-0.52,.
Cc1cccc(-n2c(=O)[nH]c3c(C(N)=O)nc(C)nc32)c1,1.01,.
O=C(O)c1cc2ncc(Br)cn2n1,17.9*,.
O=[N+]([O-])c1ccc(N2N=NC3CCCC32N2CCOCC2)cc1 (stereo not drawn),.,-2.32
CC(C)C1OC(=O)c2ccccc2N1c1ccccc1 (stereo not drawn),.,-3.09
CC1(C)CC(=O)CC(=O)S1,.,-0.04
Cc1ccc(-c2cc(C(F)F)nc(NCc3ccco3)n2)cc1,.,-0.13
O=C(O)CCCC(=O)Nc1ccc2c(c1)OCCO2,-0.17,0.2
CCOC(=O)c1cnc(SCc2nc(-c3ccc(Cl)cc3)oc2C)nc1N,-0.28,.
O=C(c1cccc(Cl)c1)N(Cc1cccs1)C1CCS(=O)(=O)C1 (stereo not drawn),-0.83,-0.69
CCn1c(SCC(=O)c2ccc3c(c2)CCCO3)nnc1-c1ccc2c(c1)OCCCO2,2.51,.
Cc1ccc2nc(C)c(Cc3nnc(SCC(=O)Nc4cccc(F)c4)n3C)c(=O)n2c1,-0.7,-1.51
CCSc1nnc(NC(=O)CSc2nnc3c4ccccc4n(C)c3n2)s1,1.83,0.39
Cn1c(=O)c2sccc2n2c(CCCC(=O)N3CCC(C(N)=O)CC3)nnc12,1.89,-1.44

# Bioassay records deposited in PubChem BioAssay by Center for Chemical Genomics, University of Michigan.
